# Screening results deposited in PubChem BioAssay by ICCB-Longwood Screening Facility, Harvard Medical School.
# Mtb MbtI inh – blocks the Mycobacterium tuberculosis siderophore enzyme MbtI | P9WFX0 | purified MbtI enzyme, fluorescence intensity read-out | inhibition, %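 (about 17 µg/mL by stock and volumes)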 | 100,000 compounds, 0.89% hits;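 active means above 50% in both replicates, above 80% if mildly self-fluorescent; inactive means the rest, strongly fluorescent compounds included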;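 further: 0% = mean of negative and 100% = mean of positive controls; one replicate is shown; some compounds called inactive have numbers as strong as hits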
# Target sequence (P9WFX0 whole entry, looked up): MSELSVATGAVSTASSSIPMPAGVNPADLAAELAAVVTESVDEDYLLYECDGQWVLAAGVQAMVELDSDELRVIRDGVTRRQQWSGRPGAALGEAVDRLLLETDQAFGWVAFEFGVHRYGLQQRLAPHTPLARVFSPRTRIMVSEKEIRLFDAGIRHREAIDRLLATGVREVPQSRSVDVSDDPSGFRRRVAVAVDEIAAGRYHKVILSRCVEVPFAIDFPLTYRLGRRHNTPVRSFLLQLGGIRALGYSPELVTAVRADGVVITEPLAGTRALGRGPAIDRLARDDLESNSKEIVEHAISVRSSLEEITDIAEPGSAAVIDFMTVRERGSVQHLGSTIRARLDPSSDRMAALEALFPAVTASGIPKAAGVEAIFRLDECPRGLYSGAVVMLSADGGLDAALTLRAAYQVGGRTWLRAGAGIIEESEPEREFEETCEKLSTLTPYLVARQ
# Mtb MenB inh – blocks the Mycobacterium tuberculosis MenB enzyme | MenB enzyme assay, absorbance read-out; some hits fall short of the stated cut | inhibition, %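 (about 12 µg/mL by stock and volumes)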 | 100,000 compounds, 0.43% hits;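 active means mean of two replicates above 30%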;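 further: 0% = no compound and 100% = wells with inactive enzyme; the first replicate is given; strong numbers were not always called active; inactives centre near -10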
# Target sequence (P9WNP5 whole entry, looked up): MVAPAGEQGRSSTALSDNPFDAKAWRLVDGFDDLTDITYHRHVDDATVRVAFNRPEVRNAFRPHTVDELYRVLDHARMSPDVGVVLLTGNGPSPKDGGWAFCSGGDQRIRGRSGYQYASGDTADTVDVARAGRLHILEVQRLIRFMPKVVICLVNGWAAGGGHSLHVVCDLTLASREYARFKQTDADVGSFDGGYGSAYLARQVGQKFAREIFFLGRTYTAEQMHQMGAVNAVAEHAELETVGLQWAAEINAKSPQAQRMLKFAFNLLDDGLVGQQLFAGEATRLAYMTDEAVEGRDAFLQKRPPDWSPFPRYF
# PV pol inh – poliovirus RNA polymerase inhibition; P03300; poliovirus polymerase elongation, fluorescence polarization; active compounds read low; % elongation, % (compound at 16.7 µg/mL); 150,000 compounds, 0.66% hits; in the data active means % elongation below about 90%; further: some results filed as inactive read as strong as hits
# PV pol inh intensity – also measured in PV pol inh; calls as there; % elongation; measured here: total intensity read-out; formula for this scale not given here;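 total fluorescence in place of polarization; lower means less elongation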
# Starred values were filed as active, the others as inactive; i = inactive; . = not tested or not shown.
SMILES,Mtb MbtI inh,Mtb MenB inh,PV pol inh,PV pol inh intensity
Cc1nn(C2CCS(=O)(=O)C2)c(Cl)c1/C=C/C(=O)OCCCn1c(=O)[nH]c2ccccc21 (configuration not stated),8,-6,104,108
O=C(O)CNC(=O)OCc1ccccc1,3,-5,103,100
CC1CCCC(NC(=O)CN2CCCN(Cc3ccc(F)cc3Cl)C2=O)C1C (configuration not stated),-11,-13,103,103
C=CCn1c(-c2c(Nc3ccc(Cl)cc3)sc(C(=O)c3ccccc3)c2N)nnc1N1CCOCC1,-13,-84,102,96
CCN(C(=O)c1cnn(-c2ccccc2)n1)c1nc2c(C)cccc2s1,25,12,107,94
NCCCSC1=NCCCN1,-21,-16,104,102
O=C(O)CCn1cc(I)c(=O)[nH]c1=O,5,-19,100,96
Cc1ccccc1OCC(O)Cn1c2ccccc2c2ccccc21 (configuration not stated),i,-22,101,105
O=C(CCn1nc(-c2ccc(Cl)cc2)ccc1=O)NCCN1CCN(c2cccc(Cl)c2)CC1,-10,-31,102,104
CCn1cc(C=C(C#N)C#N)c2ccccc21,-7,-35,105,102
O=C(OCC(=O)N1CCCCC1)c1ccccc1C(F)(F)F,-5,.,103,103
C/C=C(\C)C(=O)O[C@H]1C[C@@H](OC(C)=O)[C@@]2(C(=O)OC)CO[C@@H]3C2[C@]12CO[C@](O)(C(=O)OC)[C@H]2[C@](C)(C12O[C@@]1(C)[C@H]1C[C@@H]2OC2OC=C[C@@]21O)[C@@H]3O (some centres not stated),-3,-1,98,101
O=C1c2ccccc2C(=O)N1CCN1c2cccc3cccc(c23)S1(=O)=O,-11,-3,.,.
CC(C)NC(=O)C(N)Cc1c[nH]c2ccccc12 (configuration not stated),-1,-7,101,100
COc1cccc(/C=N/NC(=O)CNc2ccccc2)c1,6,-2,100,103
Cc1cc(C(=O)O)c(CN2CCCC2)o1,-3,-58,103,99
O=c1c2ccccc2c(-c2ccccc2)nn1Cc1ccccc1,0,9,104,104
Cc1ccc2nc(-c3ccccc3)cn2c1,106,-7,101,106
Cc1[nH]c2ccccc2c1C(=O)C(C)Sc1nnc(-c2ccccc2)o1 (configuration not stated),1,10,108,108
COc1ccc(C2=CC(=O)N(c3ccccc3)C(c3ccccc3)O2)cc1 (configuration not stated),-6,-28,104,107
COc1ccc2occ(C(O)c3ccccc3)c2c1 (configuration not stated),-9,-50,103,105
CC1CCCN(C(=O)COC(=O)c2ccc(Br)cc2)C1 (configuration not stated),-21,.,105,107
Cc1ccc(NC(=O)c2cccnc2)cc1C,0,.,107,108
CCCN(C(=O)C1CCCN1S(=O)(=O)c1cccc2nsnc12)c1ccc(C(C)C)cc1 (configuration not stated),2,-22,102,102
CN(C)c1cccc(C(=O)NCC(c2cccs2)N(C)C)c1 (configuration not stated),-41,-18,110,117
CC(=O)Nc1ccc(C(=O)OCC(=O)Nc2cc(Cl)cc(Cl)c2)cc1,21,.,101,102
O=C1CCCC(O)=C1C=Nc1ccc(Br)cc1,85,-22,102,103
O=C(Cn1cnc2ccccc2c1=O)OCC(=O)c1ccc2c(c1)OCO2,-4,-3,106,108
COc1ccc(C2C(C#N)=C(N)Oc3c2ccc2cccnc32)cc1 (configuration not stated),11,33*,102,105
CS(=O)(=O)c1ccc2nc(NC(=O)c3ccccc3)sc2c1,11,10,103,103
Cn1ccnc1C(=O)c1ccccc1Cl,12,.,102,107
C=Cn1c(C(=O)O)ccc1-c1ccc(C)cc1,.,13,104,94
CCOC(=O)c1c(C)[nH]c(C)c1C(=O)Cn1nnc2ccccc2c1=O,-4,1,102,104
C1CCCN(C2CCNCC2)CC1,-14,-2,100,103
CCC(Sc1nnc(C)c(=O)[nH]1)C(=O)Nc1ccccc1C#N (configuration not stated),.,10,100,108
c1coc(CNC2CCCC2)c1,1,26,102,102
CC(=O)Oc1ccc2oc(-c3ccccc3)c(C(=O)O)c2c1,.,-4,100,99
O=C1NC(=S)N(c2ccccc2)C(=O)/C1=C\c1ccoc1,69*,-21,107,124
Cc1nc2cc3c(cc2[nH]1)OCCO3,-32,-3,105,112
COc1ccc(Cc2nc(-c3ccc(Br)cc3)no2)cc1,4,.,99,91
S=C(NCC(c1cccnc1)N1CCOCC1)NC1CCCCC1 (configuration not stated),-6,0,101,101
N/C(=N\S(=O)(=O)c1cc(C(F)(F)F)cc(C(F)(F)F)c1)N1CCSCC1,-12,-7,107,110
COc1cccc2sc(N(C)c3ccccc3)nc12,-3,-5,101,102
COc1cc(C(=O)Nc2cc3c(cc2N2CCCCC2)n(C)c(=O)n3C)cc(OC)c1OC,13,5,100,101
CC(OC(=O)CCc1ccc(S(=O)(=O)N2CCOCC2)cc1)C(=O)Nc1ccc(Cl)cn1 (configuration not stated),-8,-6,101,105
O=C(OCC(=O)N1N=C(c2ccc(Cl)cc2)CC1c1ccco1)c1cc(S(=O)(=O)N2CCOCC2)ccc1Cl (configuration not stated),-5,-15,104,104
CN1CCCNC1c1ccc(-c2ccc(Br)cc2)o1 (configuration not stated),156,0,104,102
Cc1ccccc1Cc1c(C)nc2c(C(=O)NCc3ccco3)cnn2c1C,75,-23,102,103

# An excerpt from above in order of molecular weight, lowest first.
SMILES,Mtb MbtI inh,Mtb MenB inh,PV pol inh,PV pol inh intensity
Cc1nc2cc3c(cc2[nH]1)OCCO3,-32,-3,105,112
O=C1NC(=S)N(c2ccccc2)C(=O)/C1=C\c1ccoc1,69*,-21,107,124
Cc1ccccc1Cc1c(C)nc2c(C(=O)NCc3ccco3)cnn2c1C,75,-23,102,103

# Next results:
SMILES,Mtb MbtI inh,Mtb MenB inh,PV pol inh,PV pol inh intensity
Cc1cccc(Cc2cnc(NC(=O)Cn3cnc4ccccc4c3=O)s2)c1,3,-11,105,109
COc1cccc(CNCc2cccn2-c2nnc(N3CCCC3)s2)c1,2,-20,101,104
CC(C)(C)c1nnc(SCC(=O)c2ccc(F)c(F)c2)n1N,-9,-6,110,121
CC(C)N1C/C(=C/c2ccc(Br)o2)C(=O)/C(=C/c2ccc(Br)o2)C1,31,-75,100,105
COc1ccc(O)c(C(=O)c2cnc3c(c2)c(C)nn3CCO)c1,-10,-22,103,97
O=C(O)c1cccc(-n2nnnc2SCc2ccccn2)c1,-14,6,100,104
CC(Cc1ccccc1)NCc1ccco1 (configuration not stated),2,26,102,104
CCOc1ccc(CN(C)C(C)c2nnc(-c3ccc(C)cc3)o2)cc1 (configuration not stated),-3,-9,102,95
O=c1cc(CCl)c2ccc(O)cc2o1,14,.,99,97
COc1cc(NC(=O)CCC2CCCC2)c(C(=O)O)cc1OC,-13,-21,104,102
COc1ccc(CN2CCN(c3ccccn3)CC2)cc1OCc1ccccc1,-74,-9,101,103
CCCN(CCC)C(=O)c1ccc2c(c1)N(Cc1ccccc1F)C(=O)c1ccccc1S2(=O)=O,-8,-26,103,107

# Quoted at random: 7 entries already listed, in no set order.
SMILES,Mtb MbtI inh,Mtb MenB inh,PV pol inh,PV pol inh intensity
CCCN(CCC)C(=O)c1ccc2c(c1)N(Cc1ccccc1F)C(=O)c1ccccc1S2(=O)=O,-8,-26,103,107
O=c1cc(CCl)c2ccc(O)cc2o1,14,.,99,97
CCOc1ccc(CN(C)C(C)c2nnc(-c3ccc(C)cc3)o2)cc1 (configuration not stated),-3,-9,102,95
COc1cccc(CNCc2cccn2-c2nnc(N3CCCC3)s2)c1,2,-20,101,104
CC(Cc1ccccc1)NCc1ccco1 (configuration not stated),2,26,102,104
Cc1cccc(Cc2cnc(NC(=O)Cn3cnc4ccccc4c3=O)s2)c1,3,-11,105,109
COc1ccc(CN2CCN(c3ccccn3)CC2)cc1OCc1ccccc1,-74,-9,101,103

# Next section
SMILES,Mtb MbtI inh,Mtb MenB inh,PV pol inh,PV pol inh intensity
COc1ccc(NC(=O)COC(=O)c2cc(-c3ccc(C)o3)nc3ccccc23)cc1,42,-39,104,108
CCC(CC)(CN(C)C)OC(=O)c1ccccc1,.,-16,107,102
O=C(NC1=NCCS1)c1ccc(S(=O)(=O)N2CCc3ccccc3C2)cc1,-8,14,103,109
COc1ccc(/C=C2\Oc3cc(OCc4cccc(C)c4)ccc3C2=O)cc1,-225,-12,102,107
CC1=C(C(=O)c2ccccc2)CNC(=S)N1,.,-6,102,109
CCCCN(C)Cc1c(O)ccc2c(=O)c(Oc3cc(C)cc(C)c3)coc12,20,-17,103,102
Cc1ccc2nc(C3=C(O)CN(CC(C)C)C3=N)[nH]c2c1,3,12,98,103
O=C(CSc1ccccc1C(=O)O)c1ccc(Cl)cc1,-5,-17,107,111
O=C(c1cccs1)c1cnc2ccccn2c1=O,-14,1,101,96
COC(=O)c1cc(C#N)c(C)nc1Sc1nccn1-c1cc(Cl)ccc1Cl,-11,-14,107,100
CC(C)(C)NS(=O)(=O)c1ccc(F)cc1,.,-17,104,113
Oc1c(Cl)cc(Cl)cc1CN1CCN(c2cccc(Cl)c2)CC1,-5,-70,100,103
CCN(Cc1nc(-c2cccc(Br)c2)no1)C(C)C(=O)Nc1ccc(C)cc1 (configuration not stated),-4,-10,110,110
COc1ccc(CNC(=O)Cc2nc(-c3ccc(OC)cc3)no2)cc1,-15,-12,101,103
CN(Cc1ccccc1)C(=O)c1cc2c(s1)-c1ccccc1S(=O)(=O)C2,0,-1,100,106
Cn1c(C(C#N)c2nc(C#N)c(C#N)nc2Cl)nc2ccccc21 (configuration not stated),3,-32,93,98
COc1cc2c(cc1OC)C(C)N(C(=O)c1nn(-c3ccccc3)nc1C)CC2 (configuration not stated),-6,7,103,111
CCN(CC)C(=O)c1oc2ccc(S(=O)(=O)N3CCCC3)cc2c1C,0,-19,98,101
CCOc1ccc(C(=O)c2cccs2)cc1,6,-23,103,102
CCOC(=O)N1CCN(C(=O)CSc2nnc(Cc3cccn3C)n2-c2ccc(C)cc2)CC1,0,-5,101,102
CC1CCCC(C)N1C(=O)COc1ccc(-c2nnco2)cc1 (configuration not stated),7,-6,105,102
O=c1[nH]c(=O)n([C@H]2C[C@@H](O)[C@@H](CO)O2)cc1C(F)(F)F,-4,-15,101,103
O=C(Cn1c(=O)sc2ccccc21)Nc1ccccc1,.,-13,105,110
Cc1cc(NS(=O)(=O)c2ccc(N3Cc4ccccc4C3=NC(=O)c3cccc(S(=O)(=O)N(C)C)c3)cc2)no1,12,0,100,97
Cc1cc(C(=O)OCC(=O)OC2CC(C)CCC2C(C)C)c(C)o1 (configuration not stated),-16,-29,111,105
C=CCNC(=O)CCc1cc(OC)c(OC)c(OC)c1,-3,-19,100,107
c1ccc2[nH]c(Cc3nc4ccccc4s3)nc2c1,1,-64,99,91
CC(C)CC(NC(=O)c1ccc(C23CC4CC(CC(C4)C2)C3)cc1)C(=O)NCc1cccnc1 (configuration not stated),14,-28,101,94
CN1CCOCCOCCN(C)C1=O,-10,-39,103,105
Cc1cccc(NC(=O)CN2C(=O)C3C4C=CC(C4)C3C2=O)c1 (configuration not stated),-8,1,102,98
CC1=C(C#N)C(C(F)(F)F)(C(F)(F)F)N=C(c2cccnc2)N1,-1,4,100,102
CC(=O)N/C(=C/c1ccccc1)C(=O)N1CCc2ccccc21,.,9,101,108
CN(CCCc1[nH]nc(N)c1C#N)c1nc(-c2cccs2)nc2ccccc12,-19,-32,108,124
CC(C)Cn1c(SC/C(O)=C(\C#N)C(=O)NCc2ccccc2)nc2ccccc21,11,2,98,105
CCCC(=O)NCc1cn2ccsc2n1,0,-21,100,103
Cc1c(OCC(=O)C(C)(C)C)ccc2c3c(c(=O)oc12)CCC3,-8,.,99,95
CC1=C(C(=O)OC(C)C(C)(C)C)C(c2ccc(O)cc2)NC(=O)N1 (configuration not stated),-2,-25,99,99
O=C(c1cc2ccc3cccnc3c2[nH]1)N1CCc2ccccc21,-5,-13,103,102
CC(C)Cn1cnc2sc3c(c2c1=N)CCCC3,6,-2,102,103
CC(C)c1ccc(OC(=O)C2COc3ccccc3O2)cc1 (configuration not stated),-10,-4,102,103
N#CC1=C(N)Oc2nc(-c3ccccc3)[nH]c2C1c1ccc(OCC(N)=O)cc1 (configuration not stated),.,5,101,100
COC(=O)CC1=NN(c2ccccc2)C(=O)/C1=C/N(C)C,5,-2,103,103
O=C1NC(=O)c2cc(NC(=O)C3COc4ccccc4O3)ccc21 (configuration not stated),12,-13,103,99
COc1ccc(NC(=O)/C(C#N)=C/C=C/c2ccco2)cc1,10,-216,100,103
COc1ccc(C(=O)OCC(=O)N(C)C)cc1,-1,-17,105,107
Cc1cc(NCc2ccco2)c2ccccc2n1,.,-6,99,93
Cc1ccc(-n2cc(C(=O)c3cc(C)ccc3O)cc(C#N)c2=O)cc1,-12,.,103,106
O=C(O)c1c2ccccc2[nH]c2c1oc1cc(=O)ccc12,75,9,77,138
O=c1ccc(-c2ccc(S(=O)(=O)NCCCN3CCCCCC3)s2)n[nH]1,90,13,102,100
O=C(OCC(=O)N(Cc1ccccc1)Cc1ccccc1)c1ccc2ccccc2n1,-8,.,103,108
CCc1cccc2c(C#N)cn(CCOc3ccccc3OC)c12,-2,-13,101,104
CC1CCN(C(=O)CSc2nnc(Cc3ccccc3)o2)c2ccccc2S1 (configuration not stated),-3,-12,102,104
Cc1ccc(N2C3=C(C(=O)CC(C)(C)C3)C(c3cccs3)C3=C2CC(C)(C)CC3=O)cc1C,-6,-19,100,104
Cc1cccnc1N/C=C1/CCCCC1=O,-2,.,103,106
